# Assay outcomes deposited in PubChem BioAssay by Southern Research Institute.
# Mtb H37Rv – Confirmatory growth inhibition assay against Mycobacterium tuberculosis H37Rv, potency (AID 1949); most inactive calls were filed without a number and no value below 0 was filed; one-dose inhibition, % at 10 µg/mL; IC50 in µg/mL for titrated hits; 100,000 tested, 1.6% active;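 active means confirmed in a dose series; inconclusive means about 50% or more but not retested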;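 further: bacteria grown 7 days with compound before Alamar blue readout; 0% = untreated bacteria and 100% = reference antibiotic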
# Active calls of the source: *; i = inactive; u = inconclusive. Only part of the results is shown. The share of hits here may be higher or lower than overall.
SMILES,Mtb H37Rv
CCOC(=O)c1ccc(NC(=S)N2CCCC(C(=O)N3CCCC3)C2)cc1 (stereo not given),i
CC(C)c1ccccc1NC(=O)C1CC(=O)N(c2ccc(Cl)cc2)C1 (stereo not given),i
CC1=C(C(N)=O)C(c2ccccc2F)n2ncnc2N1 (stereo not given),i
O=C(CCC1CCCCC1)Nc1ccc(F)cc1F,3.4%
N#Cc1ccc(-c2cccnc2)[nH]c1=S,1.4%
O=C(O)C1C2CCC(O2)C1C(=O)Nc1ccc(Cl)cc1 (stereo not given),1.0%
COc1ccc(NS(=O)(=O)c2ccc(NC(=O)COc3ccc([N+](=O)[O-])cc3)cc2)cc1,i
CN(C)c1ccc(NC(=S)NC2CCCCC2)cc1,1.9%
Nc1nc(SCc2ccccc2)ns1,u
Ic1ccc2ncnc(NCCN3CCOCC3)c2c1,i
O=C(CC1C(=O)N(c2ccc(F)cc2)C(=S)N1CCN1CCOCC1)Nc1ccc(F)cc1 (stereo not given),i
Cc1ccc(CSCCNC(=O)/C=C/c2ccc3c(c2)OCO3)cc1,i
O=C(Nc1ccccc1-c1nc2ccccc2s1)c1cccc(Cl)c1Cl,i
O=C(COc1ccc(S(=O)(=O)N2CCOCC2)cc1)NCc1ccco1,i
CCN1CCN(c2nc3c(c(=O)n(C)c(=O)n3C)n2CCSc2nc(C)cc(C)n2)CC1,i
CSc1ccc(-c2nnn(CC(=O)Nc3ccccc3)n2)cc1,4.5%
COc1cc(C(=O)Oc2ccc(OC(=O)c3cc(OC)c(OC)c(OC)c3)c(C(C)=O)c2)cc(OC)c1OC,i
O=C(Nc1cccc(C(=O)N2CCC(Cc3ccccc3)CC2)c1)c1ccccc1,i
CC1CCN(C2CCN(Cc3cccc(Cl)c3)CC2)CC1,0.1%
CCC(Oc1ccccc1)C(=O)N1CCN(CC)CC1 (stereo not given),i
O=C(CCc1ccccc1)NC(=S)Nc1cccc(Br)c1,i
CCOC(=O)c1sc(NC(=O)c2cc(C)cc(C)c2)c(C#N)c1C,i
CCCn1c(SCc2nc(-c3cccs3)no2)nnc1-c1ccncc1,i
O=C(O)CCC(=O)Nc1ccc(N2CCCCCC2)cc1,i
CCCC(=O)NC(=S)Nc1ccc(I)c(C)n1,1.6%
N/C(=N\OC(=O)CCCN1C(=O)CCC1=O)c1ccc(Cl)cc1,1.1%
COc1ccc(CNC(=O)CN(c2cccc(C(F)(F)F)c2)S(=O)(=O)c2ccccc2)cc1,i
S=C(NCCN1CCOCC1)NC(c1ccccc1)c1ccccc1,i
Oc1ccc(C(c2c[nH]c3ccccc23)c2c[nH]c3ccccc23)cc1O,12.0%
CCSc1ccccc1C(=O)Nc1ccccc1C(C)CC (stereo not given),21.0%

# Already shown: entries from further up.
SMILES,Mtb H37Rv
S=C(NCCN1CCOCC1)NC(c1ccccc1)c1ccccc1,i
Oc1ccc(C(c2c[nH]c3ccccc23)c2c[nH]c3ccccc23)cc1O,12.0%
CCSc1ccccc1C(=O)Nc1ccccc1C(C)CC (stereo not given),21.0%

# The listing continues.
SMILES,Mtb H37Rv
Cc1ccc(NS(=O)(=O)c2cc(C(=O)Nc3cccc(C(=O)O)c3)ccc2C)cc1,i
O=c1c2ccccc2nc(-c2cccs2)n1-c1ccccc1,6.5%
CCOC(=O)c1ccc(NC(=S)NC(=O)c2ccc(C)cc2C)cc1,i
Oc1ccc2ccccc2c1CNc1nccs1,i
Cc1ccc(NC(=O)C2COc3ccccc3O2)c(C)c1 (stereo not given),i
Cc1ccc(NC(=O)CSc2nnc(-c3ccc(Cl)c(Cl)c3)n2-c2ccccc2)cc1,i
CC(=O)c1cccc(NC(=O)c2ccsc2NC(=O)c2ccoc2C)c1,i
COc1ccc(Cl)cc1C(=O)n1cnc2cc(C)c(C)cc21,i
CCOc1ccc(NC(=O)Nc2ccc(C)c(F)c2)cc1,i
O=c1c2c([nH]c3[nH]n(-c4ccccc4)c(=O)c13)CCCC2,6.3%
CCN(CC)S(=O)(=O)c1ccc(OC)c(NC(=O)c2ccc3c(c2)OCO3)c1,i
O=S(=O)(c1ccc(Br)s1)N1CCCCC1,i
CN(C)c1cc(Nc2ccc(Br)cc2)c([N+](=O)[O-])c2nonc12,i
O=C(O)c1ccc(NC(=O)C2CC2)c(NC(=O)C2CC2)c1,i
CCOC(=O)c1c(C(C)(C)C)oc2ccc(OCC(=O)OC(C)C)cc12,42.2%

# Grouped by structure, those above with an aryl thioether with sulfur outside any ring.
SMILES,Mtb H37Rv
Nc1nc(SCc2ccccc2)ns1,u
CCN1CCN(c2nc3c(c(=O)n(C)c(=O)n3C)n2CCSc2nc(C)cc(C)n2)CC1,i
CSc1ccc(-c2nnn(CC(=O)Nc3ccccc3)n2)cc1,4.5%
CCCn1c(SCc2nc(-c3cccs3)no2)nnc1-c1ccncc1,i
CCSc1ccccc1C(=O)Nc1ccccc1C(C)CC (stereo not given),21.0%
Cc1ccc(NC(=O)CSc2nnc(-c3ccc(Cl)c(Cl)c3)n2-c2ccccc2)cc1,i

# Sorted by length of the SMILES (high to low): some entries from above
SMILES,Mtb H37Rv
Cc1ccc(NC(=O)CSc2nnc(-c3ccc(Cl)c(Cl)c3)n2-c2ccccc2)cc1,i
CN(C)c1cc(Nc2ccc(Br)cc2)c([N+](=O)[O-])c2nonc12,i
CCOC(=O)c1c(C(C)(C)C)oc2ccc(OCC(=O)OC(C)C)cc12,42.2%
Cc1ccc(NC(=O)C2COc3ccccc3O2)c(C)c1 (stereo not given),i
O=S(=O)(c1ccc(Br)s1)N1CCCCC1,i
Oc1ccc2ccccc2c1CNc1nccs1,i

# New compounds follow:
SMILES,Mtb H37Rv
CCn1c(CSCc2ccc(Cl)c(Cl)c2)nnc1SCC(=O)Nc1cc(F)ccc1C,i
Cc1ccc(-c2nc3ccccc3[nH]2)cc1NC(=O)c1sc2cc(Cl)ccc2c1Cl,i
CCC(C)(C)NC(=O)Cn1cnc2c1c(=O)n(C)c(=O)n2C,i
CC(=O)Nc1ccc(NS(=O)(=O)c2ccc3[nH]c(=O)[nH]c3c2)cc1,i
Cc1c(Sc2nnc(-c3ccccc3)n2-c2ccccc2)c(=O)[nH]c2cc3c(cc12)OCO3,i
CN(C)C(=O)c1ccccc1I,1.9%
COc1ccc(NC(=S)NNC(=O)c2csc(C)c2C)c(OC)c1,i
Cc1ccc(N(CC(O)Cn2nc(C)cc2C)S(=O)(=O)c2ccc3ccccc3c2)cc1 (stereo not given),i
Cc1c(Cl)c(C(F)(F)F)nn1CC(=O)NCc1cccnc1,i
CCOc1cc(C)ccc1OCc1nnc(SCC(=O)Nc2ccccc2C(=O)OC)n1C,28.2%
CCCc1cc(=O)[nH]c(/N=C(\N)Nc2ccc3c(c2)OCCO3)n1,i
CCc1cc(C(=O)OC)c(NC(=S)NC(C)c2cc(C)ccc2C)s1 (stereo not given),0.9%
COC(=O)c1ccc(NC(=O)c2cccc(F)c2)cc1,3.9%
CS(=O)(=O)N(CCc1ccccc1)CC(=O)N(Cc1ccccc1)Cc1ccccc1,i
COC(=O)Nc1ncc(CN2CCc3ccccc3C2)s1,i
Cc1cc(C)nc(NC(=O)NC23CC4CC(CC(C4)C2)C3)c1,3.4%
Oc1ccc(Nc2ncnc3sc4c(c23)CCC4)cc1,i
Cc1ccc(NC2=NC(C(=O)Nc3ccc(F)c(Cl)c3)CC(=O)N2)cc1 (stereo not given),i
CCOC(=O)c1c(N)nn(C(=O)CC)c1-c1ccccc1,7.3%
COc1ccccc1N1CCN(c2cc(N3CCN(C(=O)c4ccc(F)cc4)CC3)ccc2[N+](=O)[O-])CC1,29.6%
COc1ccc(C(=O)Oc2ccc(C(=O)Nc3cc(Cl)ccc3Cl)cc2)cc1,i
S=C(Nc1ccccc1)Nc1cc(Cl)ccc1Oc1ccccc1,i
CC(C)(C)c1nnc(NC(=O)CSc2ccccc2)s1,i
Cc1cc(C(=O)NNC(=S)NCC2CCCO2)no1 (stereo not given),i
Cc1ccc(CN(CC(=O)Nc2cccc(F)c2)S(=O)(=O)c2ccc(C)cc2)cc1,i
Cc1nc2nc(-c3ccco3)[nH]n2c(=O)c1C,i
CC(/C=N/NC(=O)c1cc(-c2ccc(Cl)cc2)n[nH]1)=C\c1ccccc1,2.4%
COc1ccc(NC(=S)NCCSc2ccc(Cl)cc2)c(OC)c1,i
O=C(CSc1ccccc1)Nc1cccc(Oc2ccc3c(c2)C(=O)NC3=O)c1,i
CCOC(=O)c1ccc(NC(=O)CC2Sc3ccc(C(F)(F)F)cc3NC2=O)cc1 (stereo not given),i
CCOc1ccc(NC(=O)Nc2ccccc2Cc2ccccc2)cc1,i
COc1ccc(-c2noc(-c3ccc(Cl)cc3)n2)cc1OC,i
COc1cccc(C(=O)N(CC#N)CC#N)c1,i
CCOc1cc(C=O)cc(Cl)c1OC(=O)c1ccccc1Cl,i
Cc1ccc(S(=O)(=O)c2nn[nH]n2)cc1,i
O=C1NC(=O)N(c2ccccc2)C(=O)/C1=C/c1ccc(Sc2ccccc2)o1,u
COc1ccc(CCNC(=O)CSc2nnc(N)s2)cc1OC,i
CCn1c(SCC(=O)N2CCOCC2)nc2ccccc2c1=O,i
CCCOc1ccc(C2C(C(=O)c3ccc(C)o3)=C(O)C(=O)N2CCOC)cc1 (stereo not given),i
CCOC(=O)c1nc2c3c4c(sc3ncn2n1)COC(C)(C)C4,i
CCC(=O)Nc1ccc(Cl)c(NC(=S)NC(=O)c2cccc3c(Br)cccc23)c1,i
COc1ccc(-c2cc(=O)oc3cc(C)cc(OCC(N)=O)c23)cc1,i
CC(=O)c1ccc(NC(=O)NNC(=O)COc2cc(Cl)c(Cl)cc2Cl)cc1,i
O=C(CCc1ccccc1)NCc1nc(-c2ccccc2)no1,i
COc1ccc(CCNc2cc(N3CCN(C(=O)c4cc(F)c(F)cc4Cl)CC3)ccc2[N+](=O)[O-])cc1OC,i
COC(=O)c1ccccc1N1CC(C(=O)O)CC1=O (stereo not given),i
COc1ccc(-c2noc(COc3cc(C)c(Br)c(C)c3)n2)cc1OC,i
CN(C)S(=O)(=O)c1ccc(NC(=O)COc2ccccc2)cc1,i
CCOC(=O)c1c(NC(=O)C23CC4CC(CC(C4)C2)C3)sc(C(N)=O)c1C,i
CCOC(=O)c1sc(NC(=O)c2ccncc2)c(C(=O)OCC)c1C,i
O=C(CN1C(=O)c2ccccc2C1=O)Nc1ccccc1C(=O)N1CCCCC1,i
Cc1ccc(S(=O)(=O)N(CC(=O)Nc2cccnc2)c2cccc(Cl)c2Cl)cc1,i
Cc1ccc(S(=O)(=O)NC2CCOC(C)(C)C2)cc1 (stereo not given),1.6%
O=C(CN1CCc2ccccc2C1)Nc1ccc([N+](=O)[O-])cc1C(=O)c1ccccc1,0.2%
Cc1cc2sc(NC(=O)c3ccccc3)nc2cc1Cl,i
CCOc1ccc(N2CC(C(=O)OC)CC2=O)cc1 (stereo not given),u
COc1ccc(C(NC(C)=O)c2cc(Cl)c3cccnc3c2O)cc1 (stereo not given),1.6%
CCOc1ccc(Br)cc1C(=O)NCC1(c2ccccc2)CCOCC1,i
COc1cc2c(NCc3ccccc3)cc(O)c(CC(=O)Nc3ccc(Cl)cc3)c2cc1OC,i
CCc1cccc(OCCn2cnc3ccccc3c2=O)c1,i
# Continuation:
SMILES,Mtb H37Rv
COc1cccc(OC)c1C(=O)O/N=C(\N)c1ccncc1,0.1%
O=C(NCc1ccccc1)c1cccnc1N1CCCC1,i
O=C(NCCNC(=O)c1ccccn1)c1ccccn1,2.0%
O=S(=O)(NCc1ccccn1)c1cccc(Cl)c1,i
Cc1cc(NC(=O)C23CC4CC(C2)CC(c2ccccc2)(C4)C3)no1,i
O=S(=O)(Cc1ccccc1Cl)N1CCN(Cc2ccc3c(c2)OCO3)CC1,i
CCOC(=O)c1c(NC(=O)CCSc2nnc3ccccn23)sc2c1CCCCC2,i
Cc1cccc(NC(=O)CSCc2ccccc2Br)c1,i
CC(=O)Nc1ccc(-c2csc(Nc3ncccn3)n2)cc1,0.5%
CCOC(=O)c1ccc(NC(=O)c2ccco2)cc1,i
CCC1CCCCN1C(=O)c1ccc(I)o1 (stereo not given),i
Cc1ccc(NC(=S)NCCC(c2ccccc2)c2ccccc2)c(C)c1,i
COc1ccc(OC)c(C(C)NC(=O)C23CC4CC(CC(C4)C2)C3)c1 (stereo not given),i
C=CCn1c(SCc2cccc(C#N)c2)nnc1C12CC3CC(CC(C3)C1)C2,i
Cc1cc(C)c(NCc2cc(Br)ccc2O)c(C)c1,i
CN1CCc2nc(SCc3cccnc3)c(C#N)cc2C1,i
O=S(=O)(Oc1ccc(OCc2ccccc2)cc1)c1ccc(F)cc1,5.9%
O=S1(=O)N=C(Nc2nc(-c3ccccc3)cs2)c2ccccc21,3.4%
CCOC(=O)c1ccccc1NC(=O)CCCOc1ccccc1C,2.1%
CCc1ccc(C(=O)NNC(=S)Nc2sc(CC)cc2C(=O)OC)s1,i
C/C(=N/N=C1\NC(=O)C(CC(=O)O)S1)c1ccccc1 (stereo not given),i
CCC(=O)Nc1ccc(C(=O)Nc2cc(C)ccc2OC)cc1,0.5%
CC(=O)Oc1cccc2ccc(/C=C/c3c(F)cccc3Cl)nc12,<0.1µg/mL*
COc1ccc(C(CC(=O)c2ccc(Cl)cc2)S(=O)(=O)c2ccc(C)cc2)cc1 (stereo not given),15.3%
CSc1nc(N)nc(SCC(=O)Nc2nc3ccccc3s2)c1C#N,3.0%
Cc1ccc(OCC(O)CN2C(=O)c3ccccc3C2=O)cc1 (stereo not given),i
CC1=NN(c2nc3ccccc3s2)C(=O)C1Cc1cccc2ccccc12 (stereo not given),0.3µg/mL*
O=C(Nc1cccc(C(F)(F)F)c1)N1CCN(C(=O)c2ccco2)CC1,i
Nc1ccc(Oc2ccc3c(c2)C(=O)N(CCO)C3=O)cc1,i
N#Cc1ccc(C(=O)Nc2ccc(Cl)c(Cl)c2)c(F)c1,i
CCOc1cc(C=O)cc(I)c1OCc1ccc(Cl)c(Cl)c1,2.3%
O=C(COc1cc2oc(=O)c3c(c2cc1Cl)CCCC3)Nc1ccc(Br)cc1F,i
Cc1ccc(OCC(=O)Nn2cnnc2)c(Br)c1,i
Cc1c(NC(=O)c2ccccc2NC(=O)COc2ccccc2)cccc1C(=O)O,i
CCC(C)(C#CCN1CCCC1)OC(C)=O (stereo not given),i
